RGS16-Gao HTS: RGS16-Galphao interaction regulator (human). bead-based flow cytometry RGS16-Galphao binding, fluorescence; actives lie on both sides. O15492+P09471. hit rate 0.38% among 220,000. binding response (% of control), % at 10 µM. AID 1441;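 active = below 25% or above 175%, edge rows of some plates excepted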;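 note: Galphao activated by GDP with aluminum fluoride before binding; 100% = wells without compound and 0% = beads without RGS; some results beyond the cut were filed as inactive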
Target sequence (O15492 whole entry, looked up): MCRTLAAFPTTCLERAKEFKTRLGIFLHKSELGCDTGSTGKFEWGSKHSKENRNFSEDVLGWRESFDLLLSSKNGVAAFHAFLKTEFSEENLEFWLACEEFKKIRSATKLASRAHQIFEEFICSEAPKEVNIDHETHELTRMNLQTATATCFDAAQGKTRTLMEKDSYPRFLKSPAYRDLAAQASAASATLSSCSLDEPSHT
Target sequence (P09471 whole entry, looked up): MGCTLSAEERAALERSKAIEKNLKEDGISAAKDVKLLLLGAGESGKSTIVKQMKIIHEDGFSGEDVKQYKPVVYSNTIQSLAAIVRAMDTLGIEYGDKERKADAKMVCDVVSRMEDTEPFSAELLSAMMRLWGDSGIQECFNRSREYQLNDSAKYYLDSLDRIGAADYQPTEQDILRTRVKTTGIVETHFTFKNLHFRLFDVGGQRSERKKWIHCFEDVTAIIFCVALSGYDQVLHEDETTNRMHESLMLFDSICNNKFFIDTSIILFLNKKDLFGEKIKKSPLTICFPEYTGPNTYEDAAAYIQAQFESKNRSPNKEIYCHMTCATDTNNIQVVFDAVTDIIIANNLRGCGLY
GALR2 agonist: agonists of human galanin receptor 2 (GALR2) | O43603 | GALR2-expressing cells, agonist activation read-out | activation, %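 (tested at 5 µM)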 | hit rate 0.48% among 140,000;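 active = above mean plus 3 SD of all compounds, about 5% in these data, not always enough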;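 note: 0% = vehicle buffer wells and 100% = reference agonist at full effect; tested in CHO reporter cells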
Target sequence (O43603 whole entry, looked up): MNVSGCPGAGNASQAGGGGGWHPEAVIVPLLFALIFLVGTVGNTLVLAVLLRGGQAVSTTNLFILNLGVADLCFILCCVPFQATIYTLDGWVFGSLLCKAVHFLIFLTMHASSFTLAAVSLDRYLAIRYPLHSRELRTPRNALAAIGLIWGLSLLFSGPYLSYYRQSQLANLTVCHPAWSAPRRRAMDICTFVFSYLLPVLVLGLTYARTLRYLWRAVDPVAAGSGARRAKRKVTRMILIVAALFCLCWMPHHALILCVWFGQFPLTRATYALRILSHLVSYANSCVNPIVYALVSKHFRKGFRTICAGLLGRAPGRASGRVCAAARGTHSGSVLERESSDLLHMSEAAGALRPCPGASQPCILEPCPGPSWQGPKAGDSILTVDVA
Insulin prom inh: TRM-6 insulin promoter activity inhibition. TRM-6 cells (human fetal islet line), insulin promoter-eGFP reporter, imaging; reporter expression induced with tamoxifen. AID 1273. inhibition, % at 2 µM. hit rate 0.9% among 130,000;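 active = inhibition above the mean plus 3 SD, with well images judged a real hit on visual review, cut at about 60% in these data, passing the limit was not always enough; inconclusive = inhibition over the cutoff but images rejected on review; inactive = inhibition not above the cutoff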
HSV augment: HSV replication enhancement; HSV replication augmentation in cells, fold increase; maximum fold increase; hit rate 0.005% among 220,000; AID 1956;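 active = peak rise of 1.5-fold or more in the series; inconclusive = self-fluorescent or not available for retest; tested in PC3 cells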;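 note: first round at 10 µM; read as green reporter fluorescence; hits show the peak of a series up to 25 µM; 1 = signal of infected wells without compound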
PKD1 inh: PKD1 (human) kinase inhibition | hit rate 0.056% among 200,000 | inhibition, %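 (about 10 µM by stock and volumes)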 | PKD1 kinase fluorescence polarization assay;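 active = inhibition of 50% or more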;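 note: controls were vehicle for no effect and a reference inhibitor for full effect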
Insulin prom inh cell count: further read-out of Insulin prom inh, marked with its call; normalized cell count, %; measured here: cell count, toxicity; reference of the scale not given here;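 cells exposed to compound for 48 h; stained nuclei by imaging scaled within each plate; lower means fewer cells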
HSV augment primary fold: also measured in HSV augment; calls as there; fold increase; compound at 10 µM; measured here: primary screen fold increase 10 uM; tested in PC3 cells;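 GFP signal in the first replicate; 1 = infected wells without compound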
* marks the source's active call; other numbers are inactive results; i = inactive; ? = inconclusive; / = not tested or not shown; & = joins results of further samples.

SMILES	RGS16-Gao HTS	GALR2 agonist	Insulin prom inh	Insulin prom inh cell count	HSV augment	HSV augment primary fold	PKD1 inh
Cc1nn(C)c(C)c1S(=O)(=O)N1CCC(CO)(CC2CCCCO2)CC1 (stereo not given)	107.5	/	/	/	i	0.98	-0.2
CS(=O)(=O)c1ccc2c(c1)sc1nc(=O)c(/C=C3/C=CC(=O)C(O)=C3)c(N)n12	82.7	/	/	/	i	1.16	/
O=C(COc1cccc2ccccc12)N/N=C/c1ccncc1	102.5	/	/	/	i	1.34	0.4
CN1C(=O)N(c2ccccc2)C(Nc2nncs2)C1(C)C (stereo not given)	85.9	0.7	/	/	i	0.88	-0.2
C/C(=N\NC(=O)CSc1nc(C)[nH]c1[N+](=O)[O-])c1ccc(F)cc1	102.6	/	/	/	i	1.09	/
O=C(Nc1ccccc1-c1nc2ccccc2s1)c1cccnc1Cl	102.7	0.4	7.0	129.4	i	0.96	-9.1
O=C(COc1ccc([N+](=O)[O-])cc1)Nc1ccccc1N1CCCC1	105.0	/	/	/	i	0.93	2.5
O=C(CN1C(=O)C2C3C=CC(C4CC34)C2C1=O)Nc1cnc2ccccc2c1 (stereo not given)	104.8	/	/	/	i	0.81	-9.5
Cn1nc(C(F)(F)F)c(-c2ccc(Br)cc2)c1NC(=O)c1nccnc1C(=O)O	94.9	/	/	/	i	1.07	/
CC1CCc2c(sc3ncn(CCO)c(=O)c23)C1 (stereo not given)	108.9	/	35.0	138.0	i	0.95	7.3
CN(C)S(=O)(=O)c1ccc2c(c1)nc(CCC(=O)NCc1ccc(Cl)cc1)n2C	100.2	/	26.3	99.2	i	1.09	9.4
CCCn1nnnc1NC(=O)c1cc(Cl)ccc1Cl	99.7	0.3	/	/	/	/	-4.7
CCc1ccc(C(C(=O)NC2CCCCC2)N(C(=O)CNC(=O)c2ccco2)c2cccnc2)cc1 (stereo not given)	/	-1.4	-12.5	180.5	/	/	-8.1
CC(C)(C)C1=NN=C2c3ccccc3C(=O)C21 (stereo not given)	101.1	/	/	/	i	0.88	/
CC1(C(=O)NCc2ccccc2)Oc2ccccc2NC1=O (stereo not given)	102.1	-0.5	-71.9	91.4	i	1.04	-11.8
COc1ccc(Nc2nnc(SCC(=O)/C=C3/N(C)c4ccccc4C3(C)C)s2)cc1	102.1	-1.2	29.7	121.2	i	1.02	-5.7
Cn1c(CO)cnc1SCc1c(Cl)cccc1Cl	95.8	-2.1	/	/	i	0.64	-8.6
O=C(O)/C=C\C(=O)Nc1ccc(F)c(F)c1F	100.3	/	/	/	i	0.99	/
Cc1ccc(C(CC(=O)O)C2CCOC(C)(C)C2)cc1 (stereo not given)	105.0	-0.4	-4.1	111.8	i	0.9	-0.4
COc1ccc(-n2c(Cn3nnc4ccccc43)nnc2SCC(=O)O)cc1	102.7	-0.8	/	/	i	1.14	-7.5
COC(=O)c1c(C)[nH]c(C)c1-c1ccc([N+](=O)[O-])cc1	85.3	/	/	/	i	0.97	2.6
NC(=O)C1CCN(C(=O)COc2cccc3ccccc23)CC1	99.6	-0.7	13.8	124.8	i	0.85	-13.9
NC(=O)c1ccc[n+](CC(=O)c2ccccc2)c1	101.0	/	/	/	i	1	/
CC(C)c1nnc(N2C(=O)c3oc4ccccc4c(=O)c3C2c2ccco2)s1 (stereo not given)	99.1	0.6	-13.9	73.1	i	1.08	8.2
COC(=O)c1ccc(COc2ccc(/C=N/Nc3nc(C)cc(=O)[nH]3)cc2)cc1	101.0	/	/	/	i	1.12	/
The results go on:
SMILES	RGS16-Gao HTS	GALR2 agonist	Insulin prom inh	Insulin prom inh cell count	HSV augment	HSV augment primary fold	PKD1 inh
Cc1ccc(C)c(NC(=O)CSc2nnc(-c3ccccc3)o2)c1	97.0	-1.6	/	/	i	0.88	0.8
Cc1cc(C)c2sc(N(CCCN(C)C)C(=O)c3ccc(Br)s3)nc2c1	104.1	/	-122.2	80.9	i	0.76	-7.2
O=C(NCCN1CCOCC1)c1cc(Sc2cccc(Cl)c2)nc2ccccc12	101.1	-0.7	-93.3	101.6	i	0.88	3.5
CCC(CC)C(=O)NCCc1cc2ccc(C)cc2[nH]c1=O	108.0	0.3	/	/	i	0.89	-4.9
COc1ccc(CCNC(=O)CCCOc2cccc(C)c2C)cc1OC	99.6	/	/	/	i	1.08	/
Cc1cc(=O)[nH]c(/N=C(\N)Nc2ccc(SC(F)F)cc2)n1	99.7	/	/	/	i	1	-5.0
CCC(=O)OCC(=O)c1cc(C)n(-c2ccc(Br)cc2)c1C	86.0	/	/	/	i	1.02	-1.8
CCOC(=O)c1[nH]c2ccc(C)cc2c1N	103.3	-0.1	-3.1	105.2	i	1.16	-1.1
Cc1ccc(C(=S)NCS(=O)(=O)c2ccc(C)cc2)cc1	96.4	-0.5	-22.7	103.7	i	0.99	-0.4
Cc1c(C(=O)OCC(=O)c2c(N)n(CC(C)C)c(=O)n(C)c2=O)oc2ccccc12	106.9	-2.9	-51.7	128.6	i	0.73	-2.6
CCCCS(=O)(=O)c1sc2nc3c(cc2c1N)CCCC3	91.6	-0.9	27.5	166.2	i	0.88	4.8
CCOC(=O)c1cc(C(C)(C)C)oc1CNC(=O)c1c(C)oc2c1CCCC2	84.1	-2.9	-493.3	68.8	i	0.94	-5.5
N#Cc1ccc(/C=C/C(=O)c2cccnc2)cc1	95.4	/	/	/	i	0.6	-1.5
CCC(CC)c1nnc(NC(=O)C2=NNC(=O)CC2)s1	106.8	/	16.7	135.2	i	0.89	-1.1
CC(=O)Nc1ccc(OS(=O)(=O)c2ccc([N+](=O)[O-])cc2)cc1	93.6	/	/	/	i	0.88	-2.1
CN(C)CCOC(=O)C1(c2ccccc2)CCOCC1	96.3&114.7	-1.1&-2.3	-14.3&43.6	93.2&51.4	i	0.94&0.94	6.3&8.7
Cc1ccc2nc3c(cc(C(=O)NCC4CCCO4)c(=N)n3CCCOC(C)C)c(=O)n2c1 (stereo not given)	100.0	9.9	12.1	100.1	i	0.94	-1.4
COc1cc(/C=C2/SC(=O)NC2=O)ccc1Oc1ccc([N+](=O)[O-])cc1[N+](=O)[O-]	99.7	/	/	/	i	0.92	/
CCCCCn1c(=O)[nH]c2cc(C(=O)NCCCN(C)Cc3ccccc3)ccc2c1=O	103.5	/	-28.2	134.3	i	0.7	7.5
COC(C(=O)NCc1ccccc1C)c1ccccc1 (stereo not given)	103.1	0.3	-28.1	66.7	i	1.02	5.6
Cc1ccc(NC(=O)/C(=C/c2ccc([N+](=O)[O-])cc2)NC(=O)c2ccccc2)cc1	106.8	/	/	/	i	0.83	/
O=C(O)c1cnn(-c2ccccc2)c1-n1cccc1	107.1	-1.7	/	/	i	0.89	-19.3
COCCCNC(=O)C1CCC(CNS(=O)(=O)c2ccc(OC)cc2)CC1 (stereo not given)	103.0	/	41.2	92.1	i	0.95	-4.6
CC(O)CNc1cc(N)c([N+](=O)[O-])cc1[N+](=O)[O-] (stereo not given)	100.4	-1.5	40.6	91.7	i	0.99	-6.6
Cc1cc(C)c(NC(=O)CC(C)(C)C)c(Cl)c1	96.6	-2.2	20.9	80.0	i	1	0.3
Following part.
SMILES	RGS16-Gao HTS	GALR2 agonist	Insulin prom inh	Insulin prom inh cell count	HSV augment	HSV augment primary fold	PKD1 inh
CC(C)NC(=O)c1ccc(-n2c(=S)[nH]c3ccccc3c2=O)cc1	99.7	/	/	/	i	0.98	-5.4
CC(C)OCP(=O)(c1ccccc1)c1ccccc1	102.0	-1.7	-25.0	110.3	i	0.97	5.8
COC(=O)Nc1ccccc1C(=O)N1CCCCC1	105.0	-1.3	13.3	136.5	i	0.79	-2.0
COc1ccc(C(=O)c2sc3nc(C)cc(-c4cccs4)c3c2N)cc1OC	101.2	1.0	-103.2	134.8	?	/	-4.3
COC(=O)CCCNC(=O)CC1C(=O)NCCN1Cc1ccoc1 (stereo not given)	96.6	/	/	/	i	1.02	-1.3
Cc1ccccc1C(=O)NC(CC(C)C)C(=O)NN1C(=O)c2ccccc2C1=O (stereo not given)	98.0	/	23.5	101.0	i	1.27	9.6
CCCCN1C(=O)C2C3C=CC(C2C1=O)C1C2C(=O)N(CCCC)C(=O)C2C31 (stereo not given)	100.5	-0.3	/	/	i	1.15	-8.3
CC1CCCCC1NC(=O)CO/N=C/c1ccc(OC(F)F)cc1 (stereo not given)	101.8	/	/	/	i	1.24	-4.2
CCOC(=O)N1CCN(C(=O)c2cnn(-c3ccccc3)c2NC(=O)c2ccccc2F)CC1	98.7	/	/	/	i	0.79	/
CCN1CCN(CC(=O)n2c3c(c4ccccc42)CC(C)CC3)CC1 (stereo not given)	91.8	0.2	38.9	100.5	i	0.9	2.7
Cc1ccc(/C=N/c2sc3c(c2C#N)CCC3)o1	100.1	0.9	-18.4	121.0	i	0.87	0.8
CCOC(=O)c1c(C)[nH]c(C(=O)CSc2nccc(C)n2)c1C	7.4	-1.2	24.7	71.1	i	0.94	5.0
COC(=O)C(NC(C)=O)(Nc1nc2ccc(S(C)(=O)=O)cc2s1)C(F)(F)F (stereo not given)	-17.6*	0.0	/	/	i	0.77	-12.6
COc1cc(CC(=O)Nc2nccs2)cc(OC)c1OC	99.0	-0.6	/	/	i	0.68	4.4
COC(=O)c1nnn(-c2cc(Cl)cc(Cl)c2)c1C(=O)OC	105.7	/	/	/	i	0.95	/
O=C(COC(=O)CN1C(=O)c2cccc([N+](=O)[O-])c2C1=O)NC1CCS(=O)(=O)C1 (stereo not given)	109.0	/	/	/	i	0.95	/
Cc1nc(N)nc(-c2ccccc2O)n1	103.2	-0.1	0.0	169.2	i	0.89	-1.3
Cc1cc(/C=N/NC(N)=S)c(C)n1-c1cccc(Cl)c1	99.0	/	/	/	i	1.04	-2.0
CCOC(=O)C1=C(C)N(c2ccc(C)c(C)c2)C(=O)/C1=C\c1ccco1	45.4	-1.3	38.5	117.8	i	1	0.2
COc1ccccc1C(=O)OCc1ccc2sc(C)nc2c1	100.7	/	/	/	i	0.98	1.8
CN(C)S(=O)(=O)c1ccc(N2CCCC2)c(C(=O)Nc2nc3ccccc3s2)c1	105.4	-2.3	15.4	120.7	i	0.79	7.0
CCCOc1ccc(C(=O)NCCO)cc1	108.5	0.2	-20.7	138.4	i	0.993	-8.7
COc1ccc(/C=N/NC(=O)Cc2csc(Nc3cccc(C(F)(F)F)c3)n2)c(OC)c1	103.2	0.8	/	/	i	0.86	-6.3
COc1ccc(OCCCC(=O)Nc2ccc3c(c2)OCCO3)cc1	102.9	-2.7	-35.0	132.2	i	0.82	-4.7
CCOC(=O)C1C(=O)CC(C)(O)C(C(=O)OCC)C1c1ccc(N(CC)CC)cc1 (stereo not given)	99.2	-1.1	-15.4	134.1	i	1.02	-1.8
Other entries
SMILES	RGS16-Gao HTS	GALR2 agonist	Insulin prom inh	Insulin prom inh cell count	HSV augment	HSV augment primary fold	PKD1 inh
COc1nnc(-c2ccc(N3CCCCC3)c(NC(C)=O)c2)c2ccccc12	100.0	0.2	37.5	110.4	i	0.9	-4.0
Cc1cc(NC(=O)C2C3C(=O)N(CC4CCCO4)C(C(=O)NC(C)(C)C)C34C=CC2(C)O4)no1 (stereo not given)	105.2	/	/	/	i	0.98	7.4
CC12CCC(=O)N1C(C(=O)Nc1cccc3ccccc13)CS2 (stereo not given)	32.4	/	/	/	i	1	/
C/C(=N\NC(=O)c1cc2c(s1)CCC(C)C2)c1ccncc1 (stereo not given)	106.9	0.8	27.3	84.5	i	0.84	-3.4
COc1ccc(C(=O)N/N=C/c2sc3ccccc3c2O)cc1	90.5	-0.8	50.0	113.8	/	/	-2.9
O=C(CSc1ccc2nnc(-c3ccncc3)n2n1)Nc1ccccc1F	101.1	-3.3	/	/	i	0.87	-5.9
O=C(Nc1ncn[nH]1)c1ccccc1O	104.0	/	/	/	i	0.97	/
